Source: PubChem
WNV protease inh = WNV NS2B-NS3 proteinase inhibition; WNV NS2B-NS3 protease, fluorogenic substrate Ex360/Em465; active compounds read low; z-score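 (tested at a level between 10 and 100 µM)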; actives 0.18% (n = 65,000); P06935;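 active = z-score at -3 or under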;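 also: score is relative to mean and spread of the compound wells of a plate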
Target sequence (P06935 1371-1501 limits assumed): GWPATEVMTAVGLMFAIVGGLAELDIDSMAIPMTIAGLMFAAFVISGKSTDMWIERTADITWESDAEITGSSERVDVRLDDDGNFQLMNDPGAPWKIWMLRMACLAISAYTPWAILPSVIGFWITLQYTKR
Target sequence (P06935 1502-1679 limits assumed): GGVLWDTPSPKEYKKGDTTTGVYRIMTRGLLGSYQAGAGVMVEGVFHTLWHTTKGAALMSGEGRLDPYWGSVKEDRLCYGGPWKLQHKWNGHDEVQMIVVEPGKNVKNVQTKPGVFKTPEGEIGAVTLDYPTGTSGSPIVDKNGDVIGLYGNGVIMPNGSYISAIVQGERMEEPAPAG
Hsc70 ATP site = Hsc70 inhibitors, probe displacement, primary screen, biochemical, fluorescence polarization (AID 568) | Hsc70 fluorescence polarization, probe displacement; higher % means a stronger effect; strong numbers were not always called active | displacement, % at 20 µM, or IC50 in µM where a hit was titrated | 83,000 tested, under 10 active;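 active = displacement above 50% without optical interference and an IC50 on retest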;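 also: ATPase domain with a fluorescein-tagged ATP probe; 0% = vehicle and 100% = excess ADP; read after one hour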
MT1-MMP reporter = inhibitors of MT1-MMP promoter transcription, cell-based, luciferase reporter, luminescence (AID 618); MT1-MMP promoter luciferase reporter cells, luminescence; calls from a first round at 10 µM; hits with a dose series show EC50 in µM; actives 0.62% (n = 87,000);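 active = over half of the reporter light lost at 10 µM or EC50 under 50 µM; inactive = the rest and hits that failed the dose series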;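 also: actives suppress MT1-MMP promoter-driven transcription so potencies describe inhibitors; HT1080 fibrosarcoma cells; overnight exposure; toxic or luciferase-blocking compounds were not removed from the actives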
An asterisk follows results filed as active; i = inactive; . = not tested or not shown.

SMILES	WNV protease inh	Hsc70 ATP site	MT1-MMP reporter
CCN1CCc2c(sc(NC(=O)c3ccc(S(=O)(=O)N4CCOCC4)cc3)c2C(=O)OC)C1	-0.78	3.7%	i
Cc1cc2oc(=O)c3c(c2cc1OCc1nn[nH]n1)CCCC3	-0.09	-2.8%	i
CN1CCN(S(=O)(=O)c2cccc(C(=O)NC3CCCc4ccccc43)c2)CC1 (centres undefined)	1.4	-2.9%	i
C=CCN1C(=O)CN=C1Nc1cc(C)ccc1C	-0.47	-9.4%	i
CCn1c(SCC(=O)NC2CCCCC2)nnc1-c1cc2cccc(OC)c2o1	.	-5.1%	i
CCCCCOC(=O)c1ccc(NC(=O)c2ccco2)cc1	-0.77	0.2%	i
C=C(c1cccc2ccccc12)P(=O)(O)O	-0.86	1.9%	i
CCN=C1SC(CC(=O)Nc2ccccc2OCC)C(=O)N1CC (centres undefined)	-1.05	2.0%	i
c1ccc2nc3c(nc2c1)c1ccccc1n3CCN1CCOCC1	-2.2	2.8%	i
CC(=O)Nc1cccc2c1[n+]([O-])c(C)c(C)[n+]2[O-]	1.06	1.0%	i
N#Cc1ccc(C(=O)Nc2ccc(S(=O)(=O)NC3=NCCCCC3)cc2)cc1	.	-0.5%	i
CCOC(=O)c1cc(C)n(-c2ccc(OC)c(OC)c2)c1C	0.07	-3.2%	i
COC(=O)c1ccc(-c2ccco2)n1Cc1ccccc1Cl	.	-0.7%	i
N#Cc1nc(-c2ccc(OCc3ccccc3)cc2)oc1NCc1cccnc1	0.84	-6.8%	i
Cc1cc(C)n(C(C)n2nc(C)cc2C)n1	0.49	-4.5%	i
COc1ccc(-c2nc(CS(=O)CC(=O)NCCCN3CC(C)CC(C)C3)c(C)o2)cc1OC (centres undefined)	-1.11	-2.6%	i
Cc1ccc(N2CN=C(c3ccccc3)NC2=S)cc1	.	-3.8%	i
COc1ccc(OC)c(N/C(C)=C/C(=O)c2ccc(C)o2)c1	0.00976	-4.8%	i
COC1(OC)N=C(N)C2(C#N)C(c3ccccc3)NC(C)=CC12C#N (centres undefined)	.	-4.3%	i
C=CCn1c(COc2ccccc2-c2ccccc2)nnc1SCC(=O)NC(=O)NCc1ccco1	.	3.6%	i
Cn1c(CN2CCN(c3cccc(Cl)c3)CC2)nc2ccccc21	.	4.6%	i
Cc1cc(C(=O)c2cccs2)c(N)s1	-0.17	-22.1%	i
Cc1ccc(C(=O)C2=C(O)C(=O)N(c3ncccn3)C2c2cccc(Cl)c2)o1 (centres undefined)	-0.31	0.0%	i
CCOC(=O)C1CCN(C(=O)c2cn(CCOC)c(=O)c3c2c2ccccc2n3C)CC1	-0.31	-4.4%	i
CC1(C)Cc2noc(N)c2C(C)(C)N1OC(=O)c1cccs1	0.7	-1.0%	i
Cc1[nH]c2ccc(OC(=O)N3CCOCC3)cc2c1C(=O)OC(C)C	.	0.2%	i
O=S1(=O)N=C(Nc2nncs2)c2ccccc21	.	0.1%	i
O=C(C1CCC(CNc2c(N3CCCCC3)c(=O)c2=O)CC1)N1CCCCC1 (centres undefined)	1.27	-0.3%	i
COc1nc(NCc2ccco2)nc(N2CCC(C)CC2)n1	1.35	-0.2%	i
CCC(C)NC(=O)C1CCN(c2nc(OC)nc(OC)n2)CC1 (centres undefined)	.	0.7%	i
CC(C)CN(C(=O)COC(=O)CCN1C(=O)c2ccccc2C1=O)C1CCS(=O)(=O)C1 (centres undefined)	-0.03	-1.4%	i
Fc1ccccc1CN1CCCCCCC1	.	2.5%	i
Cc1nnc(SCC(=O)Nc2ccc(N3CCOCC3)cc2)n1-c1ccccc1	.	-1.2%	i
Cc1cccc(CSc2nnc(-c3ccco3)n2C)c1	-0.5	-6.0%	i
Cn1c(=O)c2c(nc(SCc3ccccn3)n2C)n(C)c1=O	-2	-2.3%	i
Cc1ccc(-n2nnc3c(=O)n(CC(=O)N4CCOCC4)cnc32)cc1	0.42	-0.3%	i
CN1CC(=O)NC1=NC(=O)c1ccc(Cl)c(S(=O)(=O)N2CCCCCC2)c1	-0.06	2.7%	i
CCOC(=O)C1=C(c2ccccc2)OC(N)=C(C#N)C1c1ccco1 (centres undefined)	1.53	2.7%	i
N#CCN1C(=S)N=C(Nc2cccc(Cl)c2)C12CCCCC2	.	-0.3%	i
COC(=O)c1cccc2c1-c1ccccc1/C2=N/O	0.59	2.2%	i
CCN(CCNC(=O)C1CCN(S(=O)(=O)c2cccc3cccnc23)CC1)c1ccccc1	1.47	6.9%	i
O=C(NCc1ccccc1)N1CCN(c2ccccc2F)CC1	-1.02	3.1%	i
CCC1C(C#N)=C(SC)NC2=C1C(=O)CC(C)(C)C2 (centres undefined)	0.21	-2.6%	i
CC1CCCCN1CCn1c(=S)[nH]c2ncccc2c1=O (centres undefined)	0.63	-1.0%	i
CCn1c(SCC(=O)N2CCCCC2)nnc1-c1ccc(S(=O)(=O)N2CCN(C)CC2)cc1	0.57	2.1%	i
COc1ccc(N2C3=[N+](CCCC3)CC2(C)O)cc1 (centres undefined)	-0.59	2.9%	i
O=C(c1cccc(S(=O)(=O)N2CCCCC2)c1)N1CCOCC1	1.32	1.9%	i
CCOC(=O)C1Cn2c(nc3c(c2=O)C2(CCCC2)Cc2ccccc2-3)S1 (centres undefined)	0.65	0.4%	i
COC(=O)C1=C(N)Oc2cc(C)n(Cc3cccnc3)c(=O)c2C1c1cccc(OC)c1OC (centres undefined)	-0.15	2.9%	i
CC(=O)NC(C)c1ccc(Cl)c(Cl)c1 (centres undefined)	-1.04	-5.4%	i

Structural class: the entries above with an NH in an aromatic ring (3)
SMILES	WNV protease inh	Hsc70 ATP site	MT1-MMP reporter
Cc1cc2oc(=O)c3c(c2cc1OCc1nn[nH]n1)CCCC3	-0.09	-2.8%	i
Cc1[nH]c2ccc(OC(=O)N3CCOCC3)cc2c1C(=O)OC(C)C	.	0.2%	i
CC1CCCCN1CCn1c(=S)[nH]c2ncccc2c1=O (centres undefined)	0.63	-1.0%	i

(listing goes on)
SMILES	WNV protease inh	Hsc70 ATP site	MT1-MMP reporter
CCOc1cc2[nH]c(=O)n(CCCCC(=O)NC3CCCCC3)c(=O)c2cc1OCC	0.14	-0.7%	i
Cc1ccc(C2=N/C(=C\N3CCCCC3)C(=O)O2)cc1	.	-3.5%	i
COc1ccc(N(C(=O)COc2ccccc2)C2C=CS(=O)(=O)C2)cc1 (centres undefined)	-1.48	4.6%	i
COc1cc2ccccc2cc1C(=O)OCC(=O)N1CCOCC1	0.21	0.7%	i
CC(C)CCNC(=O)c1cc(-c2ccco2)nc2ccccc12	.	-1.3%	i
CC1(C)Cc2c(sc3nc(SCC(=O)NCc4ccco4)n(-c4ccccc4)c(=O)c23)CS1	-1.33	-2.7%	i
CC(C(=O)NC1=NCCS1)(C(F)(F)F)C(F)(F)F	0.32	-1.3%	i
N#Cc1nc(-c2ccccc2)oc1N1CCCCC1	-0.27	3.8%	i
CC(=O)c1cccc(NC(=O)N2CCC(c3nnc(SCC(N)=O)n3C)CC2)c1	0.97	3.2%	i
Cc1c(C(=O)Nc2ccccn2)oc2ccccc12	1.21	2.4%	i
COc1ccccc1C(=O)Nc1ccccc1N1CCN(S(C)(=O)=O)CC1	1.36	0.9%	i
CCCCn1c(=O)[nH]c(=O)c2c1nc(COc1ccc(C#N)cc1)n2CCC	0.13	-1.6%	i
N=C1C(c2nc3ccccc3c(=O)[nH]2)=C(O)CN1CCO	0.93	-3.3%	i
CC1(C)CC(=O)c2sc(NC(=O)CN3CCCCC3)nc2C1	-0.23	-0.7%	i
Cn1c(-c2ccccc2Br)n[nH]c1=S	.	-1.4%	i
CCC(c1nnnn1C(C)(C)C)N1CCN(c2cc(Cl)ccc2C)CC1 (centres undefined)	-0.03	-6.2%	i
C=CCOC(=O)C1=C(C)N(C)C(=O)NC1c1cc2c(cc1Br)OCO2 (centres undefined)	-0.66	2.0%	i
O=C(NC12CC3CC(CC(C3)C1)C2)C1CC(=O)N(c2ccccc2)C1 (centres undefined)	.	1.3%	i
Cc1nc2nc(SCC(=O)N3CCOCC3)nn2c(C)c1Cc1c(F)cccc1Cl	1.08	4.3%	i
CN(C)c1ccc(NC(=O)Nc2ccc3snnc3c2)cc1	0.33	-3.6%	i
COc1ccc(C(=O)Cn2nnc(-c3ccccc3NC(=O)C(F)(F)F)n2)cc1	.	-1.5%	i
CCCC(=O)Nc1cc(-c2nc3ncccc3o2)ccc1C	.	22.5%	i
O=C1c2ccccc2C(Nc2ccc3c(c2)OCCO3)N1Cc1ccc2c(c1)OCO2 (centres undefined)	-0.64	-1.8%	i
Cc1nn(-c2ccccc2)c(N2CCCC2)c1/C=N/n1cnc2scc(-c3ccccc3)c2c1=O	-0.55	-4.6%	i
CSC1=N/C(=C\c2ccc(F)cc2)C(=O)S1	.	-0.2%	i
CC(C)NC(=O)CSc1nnc(-c2ccc(S(=O)(=O)N3CCCC3)cc2)n1CC1CCCO1 (centres undefined)	-0.62	-0.7%	i
CCOc1cc(NC(=O)c2ccco2)c(OCC)cc1NC(=O)Cc1ccc(OC)c(OC)c1	-0.06	-1.6%	i
COc1ccccc1CNc1ccc(N2CCCCC2)cc1	0.93	1.8%	i
O=C(Nc1ccccc1C(=O)NCCCn1ccnc1)c1ccccc1	0.32	8.3%	i
COc1nc(-c2ccccc2)ccc1-c1noc(-c2cccnc2)n1	1.01	-5.6%	i
COc1ccc(N2CCN(c3oc(-c4ccc(OC)c(OC)c4)nc3C#N)CC2)cc1	-0.53	-4.1%	i
COCCn1c(CN2CCN(C)CC2)nc2c1c(=O)n(C)c(=O)n2C	0.21	-0.5%	i
Cc1ccc2cc(C)c(SCC#N)nc2c1	1.27	-1.6%	i
CCOc1ccccc1NC(=O)C1=C(C)NC(=O)NC1c1cccc(OC)c1OC (centres undefined)	0.92	1.3%	i
CCCN1C(=O)/C(=C/c2c(NCCCOC(C)C)nc3c(C)cccn3c2=O)SC1=S	.	-43.3%	i
CCOC(=O)c1cc2c(ccn2C)n1Cc1cc(C)ccc1C	.	2.3%	i
CC1CCC2(CC1)NC(=O)N(CC(=O)c1ccc[nH]1)C2=O (centres undefined)	.	4.5%	i
Cc1cc(C)c(NC(=O)C2CSCCS2)c(C)c1 (centres undefined)	-0.72	2.4%	i
COc1ccc(CNC(=O)c2cccs2)cc1	-0.74	-5.0%	i
COC(=O)c1cc(Nc2cc(C)nc3ncnn23)cc(C(=O)OC)c1	-0.02	-1.8%	i

Record cards, as listed above. Order of screens: WNV protease inh, Hsc70 ATP site, MT1-MMP reporter
CC1CCC2(CC1)NC(=O)N(CC(=O)c1ccc[nH]1)C2=O (centres undefined) across the screens: ., 4.5%, i
CCCN1C(=O)/C(=C/c2c(NCCCOC(C)C)nc3c(C)cccn3c2=O)SC1=S across the screens: ., -43.3%, i
COC(=O)c1cc(Nc2cc(C)nc3ncnn23)cc(C(=O)OC)c1 across the screens: -0.02, -1.8%, i
COc1ccc(CNC(=O)c2cccs2)cc1 across the screens: -0.74, -5.0%, i
COc1ccc(N2CCN(c3oc(-c4ccc(OC)c(OC)c4)nc3C#N)CC2)cc1 across the screens: -0.53, -4.1%, i

Continued.
SMILES	WNV protease inh	Hsc70 ATP site	MT1-MMP reporter
COc1ccc(OC)c(-n2cnc3cc(C(=O)NCCCN4CCOCC4)ccc32)c1	-0.52	-2.1%	i
O=C(CCN1CCc2ccccc21)c1ccc2c(c1)OCCO2	-0.99	-40.5%	i
Cc1cc2c(c(=O)n1CCN(C)C)C(c1ccc(Br)cc1)C(C#N)=C(N)O2 (centres undefined)	-0.64	1.8%	i
O=C(c1ccco1)N1CCN(C(=O)c2cccc3c2C(=O)N(Cc2cccnc2)C3)CC1	0.15	2.3%	i
Cc1cccc(-n2nnc(C(=O)NCc3ccccc3)c2N)c1	-0.34	5.6%	i
O=C(CNS(=O)(=O)c1cccc2nsnc12)NC1CCCCC1	0.59	-10.1%	i
O=C(Nc1ccc2c(c1)Cc1ccccc1-2)c1ccc(Br)o1	.	-1.6%	i
CCCn1c(CCC(=O)O)ccc1-c1cccs1	0.06	1.3%	i
CN1CC2(C(=O)c3ccccc3)CN(C)CC(C(=O)c3ccccc3)(C1)C2	0.3	0.0%	i
COC(=O)C(NC(=O)c1ccco1)(Nc1nc(C2CC2)cs1)C(F)(F)F (centres undefined)	0.89	1.3%	i
CCOC(=O)C1CCN(C(=O)COC(=O)CCOc2ccc(C)cc2)CC1	0.63	-4.6%	i
O=C(c1n[nH]c(=O)c2ccccc12)N1CCN(c2ccc(F)cc2)CC1	0.11	7.2%	i
COc1ccc(C2=Nn3c(nnc3C3CCCCC3)SC2)cc1OC	.	-5.1%	i
Brc1ccc2nc(CSc3ncn[nH]3)cn2c1	-2.16	-6.6%	i
OCCn1c(-c2ccc3c(c2)OCO3)csc1=Nc1ccccc1	-0.95	5.2%	i
Nc1cc(C(=O)O)ccc1N1CCCCCC1	-0.54	0.3%	i
FC(F)(F)C(F)(F)C(F)(F)c1nnc2ccc(N3CCOCC3)nn12	1.23	0.2%	i
CC(C)COC(=O)N1CCCC1C(=O)Nc1nccs1 (centres undefined)	-0.04	-3.0%	i
Cc1cc(N2CCCC2=O)cc(C)c1S(N)(=O)=O	0.56	-1.9%	i

Gathered by group, those above with a COOH group
SMILES	WNV protease inh	Hsc70 ATP site	MT1-MMP reporter
CCCn1c(CCC(=O)O)ccc1-c1cccs1	0.06	1.3%	i
Nc1cc(C(=O)O)ccc1N1CCCCCC1	-0.54	0.3%	i

Compounds as they come. About 0.87% of those tested had a hit in this group.
